Screens from PubChem BioAssay.
Ecoli growth: E. coli growth inhibition, primary screen, OD600; Escherichia coli growth, 23 h; active compounds read low; OD600 absorbance (test concentration not listed); actives 0.21% (n = 330,000); AID 1053175, 2014;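 active means OD600 absorbance below the run mean of sample wells minus 3.6 SD, in any replicate, cut at about 0.56 in these data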;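 further: stock transfer was 300 nL into about 60 µL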
HNF4A DNA FP: change in binding of human HNF4A to DNA, primary screen, biochemical, fluorescence polarization, FITC-DNA | activity change, % at 10 µM | Hepatocyte nuclear factor 4-alpha (Homo sapiens), P41235 | 1 h | actives 0.3% (n = 360,000) | AID 1224865, 2016; in the data active means activity change above about 30%, passing the limit was not always enough;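 further: controls were the assay level and a saturating level of protein; the project sought stronger binding though the title names inhibitors; some compounds called inactive have numbers as strong as hits; positive values seem to mean higher polarization but the record does not say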
Target sequence (P41235 whole entry, looked up): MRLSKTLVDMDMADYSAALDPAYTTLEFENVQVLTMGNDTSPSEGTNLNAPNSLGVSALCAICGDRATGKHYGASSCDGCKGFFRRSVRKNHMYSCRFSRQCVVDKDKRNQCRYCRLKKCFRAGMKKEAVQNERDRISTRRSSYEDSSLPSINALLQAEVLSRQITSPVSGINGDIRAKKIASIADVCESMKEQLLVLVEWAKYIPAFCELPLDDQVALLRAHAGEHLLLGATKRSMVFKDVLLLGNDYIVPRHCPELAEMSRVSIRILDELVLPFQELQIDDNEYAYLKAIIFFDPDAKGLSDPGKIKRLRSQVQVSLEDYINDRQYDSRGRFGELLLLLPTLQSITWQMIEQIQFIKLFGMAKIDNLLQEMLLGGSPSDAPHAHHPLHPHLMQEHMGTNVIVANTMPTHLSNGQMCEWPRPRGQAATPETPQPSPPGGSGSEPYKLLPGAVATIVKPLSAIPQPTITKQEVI
ALR inh: inhibitors of human ALR sulfhydryl oxidase, primary screen, biochemical, H2O2 detection, HRP-luminol luminescence, single point; FAD-linked sulfhydryl oxidase ALR (Homo sapiens), P55789; inhibition, % (no concentration beside the values); actives 3.8% (n = 290,000); AID 485317, 2010; purified ALR, DTT oxidation;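 active means mean and each replicate at 75% or more; inconclusive means only one of the two met; inactive means neither met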;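 further: stock transfer was 7.5 nL into about 7.5 µL; 0% = neutral wells and 100% = wells with inactivated enzyme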
Beta2AR agonist: beta2AR agonists driving receptor internalization, primary screen, cell-based, FAP fluorogen, flow cytometry. Am2.2-beta2AR cells; reference of the scale not given here. actives 0.43% (n = 340,000). response, % (no concentration beside the values);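 active means response above a set limit, near 3 SD of response in nonfluorescent compounds, cut at about 42% in these data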;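 further: stock transfer was 100 nL into about 11 µL; a reference agonist was the positive control; negative values mostly stem from fluorescent compounds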
UCH37 inh: inhibitors of human UCH37 deubiquitinase, primary screen, biochemical, Ub-AMC cleavage, fluorescence. Ubiquitin carboxyl-terminal hydrolase isozyme L5 (Homo sapiens), Q9Y5K5. purified proteasome/UCH37. inhibition, % (no concentration beside the values). actives 0.33% (n = 330,000). AID 588478, 2011;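 active means mean of two replicates above 20%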;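 further: 0% = compound-free wells with enzyme and 100% = wells lacking proteasome; stock transfer was 100 nL into about 20 µL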
Target sequence (Q9Y5K5 whole entry, looked up): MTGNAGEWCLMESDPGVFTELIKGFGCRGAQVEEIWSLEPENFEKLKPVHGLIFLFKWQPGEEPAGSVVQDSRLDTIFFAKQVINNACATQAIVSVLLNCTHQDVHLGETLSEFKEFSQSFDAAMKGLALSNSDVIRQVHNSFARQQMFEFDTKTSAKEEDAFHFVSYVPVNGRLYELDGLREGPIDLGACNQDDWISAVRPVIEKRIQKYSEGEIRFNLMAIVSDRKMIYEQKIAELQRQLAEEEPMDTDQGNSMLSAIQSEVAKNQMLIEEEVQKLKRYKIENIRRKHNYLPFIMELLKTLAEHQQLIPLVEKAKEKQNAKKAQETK
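Material: Human UCH37 enzyme supplied as purified proteasome complex | Schedule: 30 min preincubation with enzyme, 25 min cleavage at room temperature | Detection: AMC fluorescence 355/460 nm | Measure: % inhibition of Ub-AMC cleavage fluorescence | Controls: Wells without proteasome as full block, compound-free enzyme plus substrate as uninhibited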
FGF22 binding: binders of human FGF22 protein, primary screen, FGF22 synaptogenesis inhibitor project, biophysical, thermal shift, single point; AID 651658, 2012; recombinant FGF22 thermal shift, SYPRO orange fluorescence; percent of sucrose octasulfate shift, DMSO zero; calls only at 9.99 µM; Fibroblast growth factor 22 (Homo sapiens), Q9HCT0; actives 1.5% (n = 340,000);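 active means melting point raised past a set limit in the mean and every replicate; inconclusive means no clear call; three in four hits are not shown here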
Target sequence (Q9HCT0 whole entry, looked up): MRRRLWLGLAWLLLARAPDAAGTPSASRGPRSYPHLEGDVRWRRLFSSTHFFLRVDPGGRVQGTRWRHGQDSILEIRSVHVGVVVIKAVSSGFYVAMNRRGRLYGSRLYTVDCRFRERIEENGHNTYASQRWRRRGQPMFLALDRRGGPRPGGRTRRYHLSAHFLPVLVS
rRNA inh HTS: reduced GFP signal of wild-type E. coli, primary screen, bacterial rRNA inhibitor project, GFP/RFP fluorescence, OD600, single point; E. coli WT GFP vs humanized-ribosome RFP mutants, 24 h; active compounds read low; DMSO median 0, no signal -100; GFP signal change (wild-type ribosome), % (concentration not given with the values); actives 1.6% (n = 350,000); AID 720706, 2013;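 active means significant combined selectivity score with lowered wild-type GFP, culture density cut under 30%, mutant RFP and density less affected; inactive means any of these conditions unmet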; further: one replicate is shown; some compounds called inactive have numbers as strong as hits
rRNA inh HTS OD600: further read-out of rRNA inh HTS, marked with its call; OD600 change, %; measured here: OD600 growth;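 optical density of the mix in the first replicate; 0 = DMSO median and -100 = no signal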
rRNA inh HTS RFP: second read-out of rRNA inh HTS, no call of its own (marks repeat the call); RFP signal change, %; measured here: RFP humanized mutant strains;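 first replicate; 0 = DMSO median and -100 = no signal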
Starred values were filed as active, the others as inactive; i = inactive; ? = inconclusive; · = no result given; & = joins results of further samples. Only part of the results is shown, so the mix of outcomes need not match the whole.

Screens in order – Ecoli growth, HNF4A DNA FP, ALR inh, Beta2AR agonist, UCH37 inh, FGF22 binding, rRNA inh HTS, rRNA inh HTS OD600, rRNA inh HTS RFP
Nc1c2c(nn1-c1ccc(C(=O)O)cc1)CNC2
  0.71, -0.8, 0, 2, 4.8, i, 2, -2, -0.2
Cc1ccc(-n2cc[nH]c2=S)c(C)c1
  0.68, 10, 28, 4, -0.7, i, 5, 13, 0.9
O=C(NCCCl)C1Cc2c(ccc3ccccc23)O1 (stereo not drawn)
  0.62, 5.1, -123, 2, -6.7, i, 2, -3, -2.0
Cc1ccc(S(=O)(=O)N(C)C[C@@H]2OCCCC[C@H](C)Oc3ccc(NC(=O)Nc4ccc(F)cc4)cc3C(=O)N([C@H](C)CO)C[C@H]2C)cc1
  ·, -3.8, ·, ·, ·, i, 13&-1, 2&-1, 1.6&-0.6
Cn1cc(Br)c(C(=O)NNC(=O)Nc2ccccc2C(F)(F)F)n1
  0.69, 3.0, ·, 6, 4.9, i, 10, 7, -1.1
C=C1N(c2ccc(Cl)cc2)C(=O)OC1(C)C
  0.69, -1.6, 1, -5, 0.5, ·, ·, ·, ·
O=C1CN2Cc3c(ccc(Cl)c3Cl)N=C2N1
  0.72, ·, 2, ·, 2.2, ·, ·, ·, ·
Cn1c(SCC(=O)NNC(=S)Nc2ccccc2)nnc1-c1ccccc1
  0.66, 4.9, 73, -1, 4.4, i, -9, -8, -1.4
COc1cc(OC)cc(C(=O)Nc2ccc(Nc3ccccc3)cc2)c1
  0.68, -0.1, 27, 10, 4.5, i, -24, -31, -1.0
Cc1nc2nc[nH]n2c(=O)c1CCC(C)C
  0.62, 2.2, ·, 1, 0.6, ·, ·, ·, ·
O=C(NNC(=O)c1ccc2ccccc2c1)c1ccc(Cl)cc1
  0.7, -0.8, ·, -1, 2.0, i, 2, 11, -2.6
COc1ccc(CC(=O)OCC(=O)Nc2ccc(Br)cc2)cc1
  0.7, -0.8, -1, -6, 3.3, i, -3, 3, 0.3
Cc1ccc(CNC(=S)N(C)C)cc1
  0.68, 3.6, 14, -4, 0.9, i, 2, 9, -0.1
COc1ccc(-c2ccc3oc(-c4ccc(OC)cc4)c(C#CC4(O)CCCCC4)c3c2)cc1
  ·, 1.5, 1, 4, ·, ·, ·, ·, ·
O=C(N/C(=C\c1ccccc1)C(=O)N1CCCCCC1)c1ccccc1
  0.68, 1.5, 6, 2, 2.0, i, 6, 1, -3.0
O=C(Cc1ccc(Cl)c(Cl)c1)Nc1cccnc1
  0.65, 2.3, ·, -2, 2.3, i, 4, 1, -2.2
CC(C)(C)n1nnnc1C(c1ccccc1)N1CCN(c2ncccc2C(F)(F)F)CC1 (stereo not drawn)
  ·, -0.3&6.2, ·, ·, ·, i, -6&8, -1&3, 1.0&1.0
COc1ccccc1Cn1c(=S)[nH]c2cc(C(=O)N3CCCC(C)C3)ccc2c1=O (stereo not drawn)
  ·, 0.7, ·, ·, ·, i, 0, 11, 0.8
CCN(CC)C(=O)c1cn(C)c(=O)c2cc(OC)c(OC)cc12
  0.68, 6.7, -12, -10, 0.0, ·, ·, ·, ·
O=C(CCl)N(c1ccc(Cl)cc1)c1c[nH]c2ccccc12
  0.64, 4.0, 98*, 69*, 6.2, ·, -23*, -11*, -5.6*
CCc1noc(C)c1C(=O)Nc1nnc(CC(C)C)s1
  0.7, -2.0, 6, -2, 0.8, i, -6, -2, -0.3
COC(=O)c1ccc(OCCOc2ccc(C(=O)OC)cc2)cc1
  0.69, 4.5, -17, 5, 0.7, ·, ·, ·, ·
Cc1ccccc1C(=O)Nc1ccc(S(=O)(=O)Nc2onc(C)c2C)cc1
  0.73, -3.4, 9, -1, 6.1, i, 0, -4, 5.3
COc1cc(OC)c(C2N(c3ccccn3)C(=O)C3CCCN32)cc1OC (stereo not drawn)
  0.63, -3.5, -25, 5, -0.8, ·, ·, ·, ·
CCOC(=O)c1cccc(NC(=O)CNS(=O)(=O)c2cccs2)c1
  0.7, 2.0, 1, 2, 2.4, ·, ·, ·, ·
Cc1cc(C)c(S(=O)(=O)Nc2ccc(-c3cn4ccccc4n3)cc2)c(C)c1
  0.69, 2.6, -14, 19, -4.0, ·, ·, ·, ·
CC(C)(C)Cc1c(C2CCCCC2)nc2ccc(Cl)cn12
  ·, 0.1, ·, ·, ·, i, 5, 5, -2.1
COc1ccc(-c2nc3c([nH]2)c(=O)n(C)c(=O)n3C)c(OC)c1
  0.67, 2.1, 17, -22, -1.4, ·, ·, ·, ·
Cc1ccc2c(c1)[C@H]1[C@H](CO2)[C@H](c2ccccc2)[C@]2(C)C(=O)Nc3cc(F)ccc3C(=O)N12
  ·, -0.9, 0, 3, 2.3, i, 1, -4, -3.5
O=C(Nc1nonc1-c1ccc(Cl)cc1)c1ccco1
  0.69, 3.8, 0, -1, 1.6, i, -1, 2, -4.5

The results go on:
Molecule | Ecoli growth | HNF4A DNA FP | ALR inh | Beta2AR agonist | UCH37 inh | FGF22 binding | rRNA inh HTS | rRNA inh HTS OD600 | rRNA inh HTS RFP
COc1cc(C2C3=C(Nc4nc(N)[nH]c(=O)c42)c2ccccc2C3=O)ccc1O (stereo not drawn) | 0.76 | -7.1 | ? | -6 | 0.5 | i | 1 | -5 | -5.2
CN1CC(=O)N(CC(=O)Nc2ccc(N(C)C)cc2)c2ccccc2C1=O | 0.69 | -0.4 | 99* | -3 | 1.1 | · | · | · | ·
NS(=O)(=O)c1ccc(NC(=O)c2ccc(S(=O)(=O)N3CCCCC3)cc2)cc1 | 0.7 | -1.7 | -7 | 1 | 1.7 | i | -12 | -17 | 1.4
O=C(O)CC1S/C(=N/N=C/C2CC=CCC2)NC1=O (stereo not drawn) | · | -1.6 | -3 | 2 | · | i | 33 | 20 | 1.8
COc1cccc(NS(=O)(=O)c2c(C)nc3sccn3c2=O)c1 | 0.73 | 0.3 | -1 | -5 | 2.6 | i | -1 | -3 | 3.8
COC(=O)Nc1ccc(Cc2ccncc2)cc1 | 0.67 | 2.9 | -2 | 16 | 1.8 | i | 9 | 4 | 1.7
Cc1ccc(S(=O)(=O)Oc2ccc(/C=C(/NC(=O)c3ccccc3)C(=O)Nc3ccccc3)cc2)cc1 | · | 2.1 | 3 | 6 | 1.3 | · | · | · | ·
OCCN1CCN(c2nc(NCc3ccco3)c3ccccc3n2)CC1 | 0.73 | 0.7 | -1 | -6 | -6.4 | · | · | · | ·
COc1ccc(C(=O)NNc2ccccc2)cc1OC | 0.62 | 1.0 | 2 | -3 | 6.7 | i | 16 | 8 | 2.0
CCCCOC(=O)c1ccc(NC(=O)COC(=O)C2CC2C)cc1 (stereo not drawn) | · | -1.4 | · | · | · | i | 3 | -1 | -1.5
COC(=O)c1oc2ccc(Br)cc2c1NC(C)=O | 0.74 | 1.3 | 16 | -5 | 2.3 | i | 1 | 17 | -0.3
CC(C)C(=O)C1=Cc2cc([N+](=O)[O-])ccc2OC1N1CCOCC1 (stereo not drawn) | 0.69 | -4.5 | 6 | -4 | 6.4 | i | 10 | 2 | 4.7
CCN(CC)S(=O)(=O)c1ccc(N2CCOCC2)c(NC(=O)C2CC2)c1 | 0.63 | 7.4 | 0 | -11 | 0.9 | · | 9 | 2 | 1.6
COc1ccc(C2CC(c3ccccc3)=NN2C(=O)COC(=O)c2cccc(S(=O)(=O)N(C)C)c2)cc1 (stereo not drawn) | 0.71 | 1.8 | · | -2 | 1.6 | i | · | · | ·
N#Cc1c(-c2ccco2)nc(SCC(=O)Nc2cccc(Cl)c2)[nH]c1=O | 0.69 | -7.3 | 99* | -10 | 2.2 | · | · | · | ·
COc1ccccc1N1CCN(C(=O)c2ccccc2SCC(=O)NCc2ccco2)CC1 | 0.61 | 2.6 | · | 4 | -0.7 | i | -1 | -9 | 6.7
O=C1N/C(=N\N=C\c2ccccn2)SC1Cc1cccc(SC(F)F)c1 (stereo not drawn) | · | 0.1 | -16 | 3 | · | · | · | · | ·
Nc1nc(CN2CCN(C(c3ccccc3)c3ccccc3)CC2)nc(Nc2ccccc2)n1 | 0.68 | 3.1 | -11 | 1 | 1.2 | i | · | · | ·
O=C(NCc1cccc(Cl)c1)c1cccc(OC2CCN(C(=O)C3CC3)CC2)c1 | 0.7 | -2.2 | -1 | -2 | 7.2 | i | -4 | -28 | 0.7
Cc1cc(F)ccc1-c1cc(C(=O)NCc2cccs2)[nH]n1 | · | 1.9 | · | · | · | i | -4 | -18 | -6.0
Cc1cc(C(=O)OCC(=O)c2ccccc2)c2ccccc2n1 | 0.7 | -0.1 | · | -7 | 3.9 | i | 5 | 5 | -3.4
CCOc1ccccc1NC(=O)c1cc(Cl)ccc1NC(=O)c1ccco1 | 0.71 | 1.1 | -2 | -5 | -3.5 | · | · | · | ·
CC(C)N1CCC1(C)C(=O)Nc1ccccc1OC(F)F (stereo not drawn) | · | 0.1 | · | · | · | i | 7 | 10 | 1.5
Cc1cc(C(=O)CSc2nnc(-c3ccccc3F)o2)c(C)n1Cc1cccs1 | 0.71 | -0.5 | -5 | 5 | 0.4 | · | · | · | ·
CN(C)c1nc(N)nc(CSc2nnnn2-c2ccc(F)cc2)n1 | 0.66 | -2.5 | -7 | 7 | 5.4 | i | 15 | 10 | -2.5

Entries listed so far shown as hits in Beta2AR agonist:
| SMILES | ALR inh | Beta2AR agonist | UCH37 inh | rRNA inh HTS | rRNA inh HTS OD600 | rRNA inh HTS RFP |
| --- | --- | --- | --- | --- | --- | --- |
| O=C(CCl)N(c1ccc(Cl)cc1)c1c[nH]c2ccccc12 | 98* | 69* | 6.2 | -23* | -11* | -5.6* |

The list goes on.
Molecule | Ecoli growth | HNF4A DNA FP | ALR inh | Beta2AR agonist | UCH37 inh | FGF22 binding | rRNA inh HTS | rRNA inh HTS OD600 | rRNA inh HTS RFP
CN(C)CCCn1c(=S)[nH]c2sc3c(c2c1=O)CCCC3 | 0.66 | 3.9 | 99* | -7 | 9.7 | i | -6 | -11 | -0.2
CCn1c(Cc2c(C)[nH]c3ccccc23)n[nH]c1=S | 0.73 | 2.5 | 48 | 0 | -0.6 | · | · | · | ·
C=C1CSc2nc3ccccc3c(=O)n21 | 0.76 | -1.3 | -5 | -5 | -7.4 | · | · | · | ·
CCN1CCN(c2ncnc3scc(-c4ccc(OC)cc4)c23)CC1 | 0.69 | -2.1 | · | 2 | 4.5 | i | -3 | -1 | 0.3
COC(=O)c1ccc(Oc2nc(C)cc(Oc3ccccc3)n2)cc1 | 0.71 | -2.5 | 1 | 5 | -1.0 | · | · | · | ·

As a short view, two of the compounds above:
Molecule | Ecoli growth | HNF4A DNA FP | ALR inh | Beta2AR agonist | UCH37 inh | FGF22 binding | rRNA inh HTS | rRNA inh HTS OD600 | rRNA inh HTS RFP
Nc1c2c(nn1-c1ccc(C(=O)O)cc1)CNC2 | 0.71 | -0.8 | 0 | 2 | 4.8 | i | 2 | -2 | -0.2
Cc1ccc(-n2cc[nH]c2=S)c(C)c1 | 0.68 | 10 | 28 | 4 | -0.7 | i | 5 | 13 | 0.9
